From PubChem
LANA-H2B inh – blocks KSHV LANA binding to histone H2A/H2B; cell-free LANA-H2A/H2B peptide, fluorescence polarization; inhibition, % (test concentration not listed); Q9QR71; 320,000 compounds, 0.6% hits; in the data active = inhibition mostly above about 10%, no sharp cut-off; inactive = mostly below about 6.7%;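 note: stock transfer was 7.5 nL into about 10 µL; 0% = median of vehicle wells and 100% = median of positive control wells; one replicate is shown; the record names a cut of 25% in any replicate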
Calb FLC – affects C. albicans growth with fluconazole; C. albicans CaCi-2 (fluconazole-resistant clinical isolate) + fluconazole, Alamar Blue growth, 48 h; 300,000 compounds, 0.57% hits; AID 1979; growth inhibition, % (test concentration not listed);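 active = most replicates above 75%; inconclusive = exactly half above 75%; inactive = most below 75%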;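 note: all wells also contain fluconazole at 8 µg/ml as a sub-toxic cotreatment; 0% = median of DMSO wells and 100% = median of geldanamycin control wells; wells of about 8 µL received 7.5 nL stock; the first replicate is given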
Beta apoptosis – blocks beta cell apoptosis; protection from apoptosis, % (concentration not given with the values); AID 435005; INS-1E cytokine-induced death, ATP luminescence, 48 h; percent of positive-control rescue, neutral wells zero; 300,000 compounds, 0.8% hits;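 active = all replicates at 75% or more, or half of them and the mean; inconclusive = half reach 75% but not the mean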;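 note: 0% = cytokine-treated negative control wells and 100% = positive control rescue; higher means more ATP so stronger rescue from cytokine killing; wells of about 40 µL received 100 nL stock; the first replicate is given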
Bfl-1 A1 inh – inhibitors of the anti-apoptotic protein A1, read as caspase activation. MEF A1-2A-BIM cells, Caspase-Glo 3/7 luminescence, 3 h; percent of clofoctol response, vehicle zero. caspase activation, % (no concentration beside the values). 330,000 compounds, 0.066% hits. AID 2462;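 active = over half of replicate activation scores above 10%, or exactly half above 10 with the replicate mean above 10; inconclusive = replicate mean below 10 yet half the replicates above 10; inactive = over half of replicates below 10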;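 note: wells of about 30 µL received 50 nL stock; many hits fall short of the cut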
Vif A3G – inhibitors of Vif binding to APOBEC3G peptide, primary screen, biochemical, TR-FRET, GST-Vif 1-94, biotin-A3G peptide, dose response retest (AID 1117319). TR-FRET GST-Vif / biotin-A3G peptide binding; higher % means a stronger effect; test concentration not given here; strong numbers were not always called active. inhibition, %, or IC50 in µM where a hit was titrated. 260,000 compounds, 0.57% hits;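 active = above the screen mean plus three standard deviations and confirmed in dose response; inconclusive = results disagree or hit not tested in dose response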;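 note: Vif residues 1-94 fused to GST binding biotinylated APOBEC3G peptide 110-148; 0% = full assay without inhibitor and 100% = GST in place of GST-Vif; retest series ran down from 100 µM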
AF4-AF9 inh – MLL-AF4/AF9 protein interaction inhibition. P42568. AlphaScreen, biotin-AF4 peptide binding to FLAG-AF9. inhibition, % at 10 µM. 350,000 compounds, 0.47% hits. AID 651704;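 active = every replicate reaching a set inhibition limit, whatever the replicate mean, cut at about 25% in these data; inconclusive = mean inhibition reaches that limit but some replicates miss it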;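 note: 0% = plate neutral control median and 100% = total signal loss; the record names both 10 and 1 µM as test concentration; the first replicate is given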
T cruzi inh – T. cruzi replication inhibition | T. cruzi beta-gal in NIH3T3, luminescence, 90 h | inhibition, % (no concentration beside the values) | 300,000 compounds, 1.4% hits | AID 1885;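 active = mean inhibition across valid replicates above about 55%, limit read from the data; inconclusive = mean below that limit but half or more replicates reach it; inactive = mean below it, under half of replicates reach it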;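 note: signal also drops with host cell toxicity which is not excluded here; 0% = plate median of DMSO wells and 100% = zero luminescence signal; higher percent means less beta-gal luminescence so fewer parasites; stock transfer was 50 nL into about 50 µL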
RanGTP-Imp inh – inhibitors of RanGTP-importin-beta interaction, primary screen, biochemical, FRET, CFP-Ran, YFP-importin-beta, homogeneous | inhibition, % (no concentration beside the values) | 300,000 compounds, 1.1% hits | cell-free CFP-Ran/YFP-importin-beta FRET ratio;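 active = most replicates above 15%; inconclusive = exactly half above 15%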;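 note: 0% = DMSO wells and 100% = Ran loaded with GDP instead of GTP; wells of about 40 µL received 100 nL stock; the first replicate is given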
The depositor's hits bear a star; ? = inconclusive; nt = no result given; & = joins results of further samples; ! = not confirmed by another sample.

nr	compound	LANA-H2B inh	Calb FLC	Beta apoptosis	Bfl-1 A1 inh	Vif A3G	AF4-AF9 inh	T cruzi inh	RanGTP-Imp inh
1	Cn1c(N2CCC(C(N)=O)CC2)nc2c1c(=O)n(Cc1ccc(Cl)cc1)c(=O)n2C	1.0	-1	-5	0.1	2%	nt	0	3.4
2	Cn1c(CO)nc2c3ccccc3ccc21	6.1	-1	4	-0.3	nt	-1.4	-16	7.9
3	COc1ccc(NC(=O)C(CC(C)C)NC(=O)c2ccccc2C)cn1 (stereo not given)	3.5	-25	0	-2.2	-3%	nt	11	-3.2
4	CCN(CC)C(=O)c1ccc2c(=O)n(Cc3ccc4c(c3)OCO4)c(=S)[nH]c2c1	2.7	-3	-1	-1.0	nt	-2.7	-11	-2.8
5	Cc1cccc(C)c1NC(=O)CN(C)CC(=O)N(C)CC(=O)Nc1ccccc1Br	-0.7	nt	-5	-0.9	0%	-1.9	nt	nt
6	O=C(NCCCN1CCOCC1)Nc1ccc(Cc2ccc(NC(=O)NCCCN3CCOCC3)cc2)cc1	3.0	-1	0	0.7	-4%	-4.1	-7	-0.3
7	COc1ccc(-n2ncc3c(=O)n(CC(=O)Nc4ccc(S(=O)(=O)N5CCOCC5)cc4)cnc32)cc1	0.9	15	1	-0.2	-5%	4.2	-24	0.4
8	Cc1c(O)cccc1C(=O)N[C@@H](CSc1ccccc1)[C@H](O)CN1C[C@H]2CCCC[C@H]2C[C@H]1C(=O)NC(C)(C)C	-2.3&-1.6	18&53	14	0.3&-0.3	nt	-0.4&0.2	67*!	-0.4&-1.6
9	Cc1ccc(Oc2ccc(OCC(=O)Nc3ccncc3)cc2)cc1	13	nt	-3	-1.8	nt	-2.4	nt	nt
10	COc1ccc(/C=C2/SC(=O)N(CC(=O)Nc3cc(C)on3)C2=O)cc1OC	-4.0	-4	1	0.1	-18%	-2.1	-5	-0.2
11	CCN1CCN(C(c2cccs2)C(C)NC(=O)CC(C)C)CC1 (stereo not given)	-5.2	-13	-1	-0.7	0%	nt	4	11
12	CSc1ncccc1C(=O)OCC(=O)NCc1cccs1	3.8	nt	2	0.1	2%	-3.1	nt	nt
13	O=C(CCN1C(=O)S/C(=C\c2ccc(F)cc2)C1=O)Nc1ccc(O)cc1C(=O)O	0.4	3	-1	1.4	nt	0.4	-4	3.6
14	COc1ccc(N2C(=O)C(CC(=O)Nc3ccc(F)cc3)N(CCc3cccs3)C2=O)cc1 (stereo not given)	-0.1	12	1	-0.8	nt	nt	15	3.4
15	C/C(=N\NC(=O)C(O)c1ccccc1)c1cccnc1 (stereo not given)	0.8	?	2	0.0	nt	2.4	-14	4.8
16	N#CC1(P(=O)(c2ccccc2)c2ccccc2)CCCC1	-3.8	9	nt	-0.9	nt	-0.5	-5	6.7
17	O=C(CSc1nc2ccsc2c(=O)n1Cc1ccccc1)NCC1CCCO1 (stereo not given)	0.7	5	10	-0.4	25%	1.3	-5	-3.2
18	CC1(C)Cc2nc(-c3ccccc3)nc(SCC(=O)N3CCCC3)c2CO1	-1.1	2	0	0.8	-11%	-9.3	26	-1.5
19	O=c1cnc(-c2ccc(Cl)cc2)cn1O	3.2	nt	-6	2.0	-5%	-3.6	-6	nt
20	Cc1nn2c(C)nc3sc4c(c3c2nc1=O)CC(C)(C)OC4	-2.8	-7	-5	-0.3	-2%	nt	-17	0.0
21	CC(=O)COC(=O)CCc1nc2ccccc2[nH]c1=O	3.9	-15	9	-0.8	6%	-1.6	-4	-2.9
22	Cc1ccc(N2C(=S)NC3c4ccccc4OC2(C)C3C(=O)N(C)C)cc1 (stereo not given)	-5.2	0	2	-0.1	-4%	-1.5	-12	-2.1
23	C=CCOc1ccc(CN(C)c2ccc(S(=O)(=O)N3CCN(C)CC3)cc2[N+](=O)[O-])cc1	1.6	nt	7	0.0	-4%	20	nt	nt
24	COc1ccccc1CNS(=O)(=O)c1ccc(Br)s1	2.1	5	-3	0.2	nt	nt	2	?
25	COC(=O)c1cccc(Nc2c3c(nc4ccccc24)CCC3)c1	nt	61	nt	nt	-3%	-5.6	17	-2.8
26	COc1ccc(CC(=O)Nc2ccc(-c3cn4ccccc4n3)cc2)cc1OC	0.7	0	8	-0.2	23%	nt	15	-1.6
27	COc1ccc(-c2ccc(CCC(=O)O)n2Cc2ccco2)cc1	2.8	42	-1	0.6	17%	3.5	-16	2.9
28	O=C(Nc1ccc(F)cc1F)c1cc2n(n1)C(C(F)(F)F)C1CCCCC1N2 (stereo not given)	-4.8	-9	-7	1.4	-3%	nt	9	0.2
29	COc1ccc2c(c1)oc(=O)c1cc(OC)ccc12	-7.9	2	8	0.3	-5%	-4.0	10	0.8
30	COC(=O)CCCCCc1ccc(C(C)=O)s1	3.6	10	-5	-0.3	-1%	nt	-5	0.8
31	COc1ccc(-c2cn[nH]c2N)c(OC)c1	1.4	-1	-10	1.2	3%	nt	-18	1.6
32	CCN(C(=O)CN1CC(C)OC(C)C1)c1c(N)n(Cc2ccccc2)c(=O)[nH]c1=O (stereo not given)	1.9	-6	-4	-0.4	15%	-0.2	-11	-5.2
33	O=S(=O)(c1ccc(Br)cc1)N1CCN(c2ccccc2)CC1	5.5	18	-1	0.3	nt	-1.4	-5	-2.7
34	O=c1ccc(-c2nc3ccccc3n2Cc2ccccc2Cl)c[nH]1	-11	-11	nt	-0.9	-1%	1.3	-16	0.1
35	CCN(C(=O)COC(=O)Cc1c[nH]c2ccccc12)c1c(N)n(Cc2ccccc2)c(=O)[nH]c1=O	nt	2	-9	?	2%	-0.6	-6	-1.6
36	COc1ccc(-c2c(C#N)c(N)nc3c2c(=O)n(C)c(=O)n3C)cc1	1.1	-2	5	-0.2	-34%	nt	6	7.5
37	Cc1cc(C(=O)N/N=C/c2ccc(-c3ccccc3Cl)o2)n[nH]1	-1.6	13	-4	-1.1	nt	6.9	62*	2.9
38	Cc1sc(C(=O)NCc2cccnc2)c2nc(C)n(CC(=O)NCc3cccnc3)c(=O)c12	3.6	-17	0	0.5	9%	nt	-5	0.0
39	Cn1c(C(=O)NCCN2CCOCC2)cc2sccc21	-1.0	-5	-11	0.5	-2%	nt	-17	5.0
40	COc1cc(/C=C2\SC(=S)N(CC(=O)NC3=NCCS3)C2=O)cc(OC)c1OC	0.0	-8	-1	0.8	nt	0.9	-21	?

The last 2 records of the section above come first, to join the parts:
nr	compound	LANA-H2B inh	Calb FLC	Beta apoptosis	Bfl-1 A1 inh	Vif A3G	AF4-AF9 inh	T cruzi inh	RanGTP-Imp inh
39	Cn1c(C(=O)NCCN2CCOCC2)cc2sccc21	-1.0	-5	-11	0.5	-2%	nt	-17	5.0
40	COc1cc(/C=C2\SC(=S)N(CC(=O)NC3=NCCS3)C2=O)cc(OC)c1OC	0.0	-8	-1	0.8	nt	0.9	-21	?
41	Cc1c(N/C=C(\Cl)C(=O)C(F)(F)F)c(=O)n(-c2ccccc2)n1C	-1.8	-4	-7	0.7	14%	1.4	-10	-0.5
42	CCn1cc(C(=O)N[C@@H](CC(C)C)C(=O)NCCCn2ccnc2)c(=O)c2cc3c(cc21)OCO3	1.4	6	-22	0.6	-3%	-9.2	1	-1.7
43	CSc1ccccc1C(=O)Nc1cccc(C(C)=O)c1	-1.4	16	0	0.3	1%	nt	-6	-1.1
44	COc1ccc2nc(NNC(=O)c3cc(=O)c4ccccc4o3)sc2c1	-2.1	2	7	-1.2	27µM*	-1.3	-5	7.4
45	Cc1ccc(NNC(=O)c2ccno2)cc1C	-3.0	93*	6	-0.9	-6%	-0.1	9	1.6
46	COc1cccc(CN2CCNC(=O)C2CC(=O)NCc2cn3ccc(C)cc3n2)c1OC (stereo not given)	-0.2	-4	-6	-0.6	?	-8.3	-17	1.7
47	CCNC(=S)NNc1nncc2ccccc12	-1.3	11	-1	0.6	-7%	-5.5	-22	3.2
48	COc1cc(C(=O)N2CCSCC2)ccc1OC1CCN(C(C)=O)CC1	-1.5	9	-3	0.9	-2%	-0.8	-11	6.5
49	CCOc1ccc(NC(=S)N2CCCN(Cc3cccc(Cl)c3)C2)cc1	2.7	-6	-8	1.6	-3%	-3.2	36	-0.1
50	CCCC(=O)Nc1ccc(C(=O)/C=C/c2ccc(SC)cc2)cc1	1.0	4	9	0.2	-4%	nt	-19	-9.6
51	Cc1ccc(NC(=O)CC2C(=O)NC3CCCCC3N2C(=O)c2ccc(F)cc2)cc1C (stereo not given)	-1.7	-1	1	0.2	26%&1%	nt	-5	1.8
52	CCOC(=O)c1c(-c2ccc(F)cc2)csc1NC(=O)CN1C(=O)NC2(CCCCC2C)C1=O (stereo not given)	nt	3	4	0.8	nt	1.3	42	2.2
53	COc1ccccc1CNC(=O)CN(c1ccc(C)cc1)S(=O)(=O)c1c(C)n[nH]c1C	-0.4	22	1	0.1	-1%	nt	-5	6.7
54	CS(=O)(=O)N1CCCC(C(=O)NCCN2CCC(Cc3ccccc3)CC2)C1 (stereo not given)	8.5	-9	-9	0.7	-5%	nt	25	0.4
55	C=CCc1ccccc1OCC(O)CN1CCN(c2ccc(C)cc2)CC1 (stereo not given)	-2.6	-6	3	-0.2	-5%	14	-9	-2.6
56	O=C(CSC(=S)N1CCOCC1)Nc1nccs1	-2.9	0	2	0.3	-9%	4.0	-12	-1.4
57	O=C(NN1C(=O)C2C3CCC(O3)C2C1=O)c1ccco1 (stereo not given)	13	?	-1	0.2	7%	2.5	-18	0.8
58	Cc1cc(/C=C2\SC(=S)NC2=O)c(C)[nH]1	0.5	0	4	-0.3	nt	-0.7	8	1.2
59	O=C(COC(=O)C1COc2ccccc2O1)NC(=O)NC1CCCC1 (stereo not given)	5.0	20	-7	-0.2	-5%	nt	-8	3.5
